RGS16-Gao: modulators of RGS16 binding to Galphao, primary screen, biochemical, human proteins, multiplexed bead flow cytometry | 0.38% of 220,000 active | bead-based flow cytometry RGS16-Galphao binding, fluorescence; actives lie on both sides | binding response (% of control), % at 10 µM | Regulator of G-protein signaling 16 (Homo sapiens) + Guanine nucleotide-binding protein …;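 active means below 25% or above 175%, edge rows of some plates excepted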;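 further: Galphao activated by GDP with aluminum fluoride before binding; 100% = wells without compound and 0% = beads without RGS; some results beyond the cut were filed as inactive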
PKD1 kinase inh: inhibitors of human PKD1 kinase, biochemical, fluorescence polarization | Serine/threonine-protein kinase D1 (Homo sapiens), Q15139 | PKD1 kinase fluorescence polarization assay | inhibition, %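 (about 10 µM by stock and volumes)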 | 0.056% of 200,000 active;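 active means inhibition of 50% or more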;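 further: controls were vehicle for no effect and a reference inhibitor for full effect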
Target sequence (Q15139 whole entry, looked up): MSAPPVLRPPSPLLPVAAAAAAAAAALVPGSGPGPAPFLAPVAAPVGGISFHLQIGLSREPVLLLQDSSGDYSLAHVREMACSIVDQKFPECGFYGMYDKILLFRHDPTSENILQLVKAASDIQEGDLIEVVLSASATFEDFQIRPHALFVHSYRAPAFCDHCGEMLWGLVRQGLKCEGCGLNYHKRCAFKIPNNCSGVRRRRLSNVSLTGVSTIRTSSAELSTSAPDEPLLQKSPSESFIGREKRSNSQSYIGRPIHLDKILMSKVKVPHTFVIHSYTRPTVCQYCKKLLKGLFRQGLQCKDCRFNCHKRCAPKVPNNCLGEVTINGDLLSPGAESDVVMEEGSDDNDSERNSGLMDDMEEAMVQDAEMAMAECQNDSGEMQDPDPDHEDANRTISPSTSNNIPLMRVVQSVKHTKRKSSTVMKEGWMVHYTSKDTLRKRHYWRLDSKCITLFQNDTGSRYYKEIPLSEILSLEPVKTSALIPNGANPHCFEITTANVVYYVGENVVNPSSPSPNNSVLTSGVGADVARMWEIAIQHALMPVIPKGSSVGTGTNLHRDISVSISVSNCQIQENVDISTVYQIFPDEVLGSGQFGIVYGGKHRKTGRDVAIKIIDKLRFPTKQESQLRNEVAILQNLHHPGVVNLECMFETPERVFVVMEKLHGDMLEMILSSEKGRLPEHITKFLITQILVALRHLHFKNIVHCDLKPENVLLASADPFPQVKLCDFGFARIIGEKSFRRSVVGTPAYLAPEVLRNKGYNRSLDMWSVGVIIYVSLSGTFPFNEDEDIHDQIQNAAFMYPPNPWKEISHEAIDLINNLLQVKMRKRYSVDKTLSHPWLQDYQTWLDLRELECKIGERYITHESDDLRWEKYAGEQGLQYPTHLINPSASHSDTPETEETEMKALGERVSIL
INS promoter inh: inhibitors of insulin promoter-driven GFP, primary screen, imaging, TRM-6 cells (human fetal islet line), eGFP reporter, cell count | reporter expression induced with tamoxifen | inhibition, % at 2 µM | 0.9% of 130,000 active;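 active means inhibition above the mean plus 3 SD, with well images judged a real hit on visual review, cut at about 60% in these data, passing the limit was not always enough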
GALR2 ag: GALR2 receptor agonists, primary screen, cell-based | GALR2-expressing cells, agonist activation read-out | 0.48% of 140,000 active | activation, %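 (tested at 5 µM)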;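 active means above mean plus 3 SD of all compounds, about 5% in these data, not always enough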;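 further: 0% = vehicle buffer wells and 100% = reference agonist at full effect; tested in CHO reporter cells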
HSV augment: enhancers of HSV replication in host cells, fold increase, host cell viability; 0.005% of 220,000 active; HSV replication augmentation in cells; maximum fold increase;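 active means peak rise of 1.5-fold or more in the series; tested in PC3 cells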;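 further: first round at 10 µM; read as green reporter fluorescence; hits show the peak of a series up to 25 µM; 1 = signal of infected wells without compound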
INS promoter inh cell count: second read-out of INS promoter inh, no call of its own (marks repeat the call); normalized cell count, %; measured here: cell count, toxicity; reference of the scale not given here;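 cells exposed to compound for 48 h; stained nuclei by imaging scaled within each plate; lower means fewer cells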
HSV augment primary fold: second read-out of HSV augment, no call of its own (marks repeat the call); fold increase; compound at 10 µM; measured here: primary screen fold increase 10 uM; tested in PC3 cells;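 GFP signal in the first replicate; 1 = infected wells without compound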
* hit, by the source's call; i = inactive; / = no result given.

canonical_smiles,RGS16-Gao,PKD1 kinase inh,INS promoter inh,INS promoter inh cell count,GALR2 ag,HSV augment,HSV augment primary fold
O=C(NCc1ccccc1)c1cc(S(=O)(=O)N2CCOCC2)ccc1F,104,-8,-84,92,-1.0,i,1
COCCSc1nnc(NC(=O)c2ccc(NC(C)=O)cc2)s1,102,-2,/,/,/,i,1
Cc1nc2c(sc3nc(N4CCOCC4)c4c(c32)CC(C)(C)OC4)c(-c2ccccc2)c1C(=O)O,94,/,/,/,/,i,0.87
COc1ccc(CN2CCC(CNC(=O)NC3CCCCC3)CC2)cc1,103,2,/,/,-0.7,i,0.93
CCOc1cc(/C=N/Nc2ncnc(Cl)c2N)ccc1O,107,-6,17,127,-0.7,i,0.94
CC1(C)CC(=O)C=C(N2CCOCC2)C1,103,-3,29,144,/,i,0.93
O=C(C1=C[C@@H](c2csc3ccccc23)C[C@@H](OCc2ccc(CO)cc2)O1)N1CCN(Cc2ccc3c(c2)OCO3)CC1,96,14,/,/,/,/,/
Cc1cccc(N(CC(=O)NCCSCc2ccccc2)S(C)(=O)=O)c1,87,7,/,/,/,i,0.94
Cc1cc2cc3c(cc2nc1SCC(=O)O)CCC3,100,5,/,/,/,i,0.89
O=C(Nc1ccc2c(c1)OCO2)c1cccc2c1C(=O)N(Cc1cccnc1)C2,95,2,15,102,0.5,i,0.75
O=C(Nc1ccccc1)c1ccncc1,103,-3,6,110,-1.7,i,0.97
Cc1ccc(C2=Nc3ccccc3SC(c3cccc([N+](=O)[O-])c3)C2)cc1 (stereo not drawn),102,/,/,/,/,i,0.88
O=C(N/N=C/c1ccccc1[N+](=O)[O-])c1ccc2c(c1)OCCO2,96,/,/,/,/,i,0.96
Cc1ncoc1C(=O)Nc1ccccc1-c1ccccc1,104,-19,21,90,0.2,i,0.96
CC(=O)C1=C(O)C(=O)N(C)C1c1ccccc1[N+](=O)[O-] (stereo not drawn),100,/,/,/,/,i,1.1
O=C(NCC1CCCO1)c1onc(CSc2cccc3ccccc23)c1C(=O)O (stereo not drawn),102,-11,-22,112,-2.6,i,0.98
CC(=O)c1sc(NC(=O)c2ccc(F)c(F)c2)nc1C,102,4,13,111,-1.5,i,0.93
O=C(C[N+]1(CC#Cc2ccccc2)CCOCC1)c1ccccc1,101,-7,0,103,/,i,1
CN(C)c1ccc(N/C(=N\S(=O)(=O)c2cccs2)c2ccccc2)cc1,97,2,/,/,-1.7,i,0.93
Cc1ccc(S(=O)(=O)c2ccc(Cl)cc2)cc1S(=O)(=O)N1CCOCC1,103,-13,/,/,-0.5,i,0.98
O=C(C[n+]1ccc(C(=O)c2ccccc2)cc1)Nc1ccc(C(F)(F)F)cc1,104,-3,-43,161,/,i,0.7
COc1ccc(CNC(=O)COc2ccc(C(=O)c3ccc(F)cc3)cc2)cc1,99,-4,-10,81,-2.0,i,0.63
NC(=O)CSc1nc2ccccc2n1Cc1ccccc1F,104,1,-212,51,-2.4,i,1.1
COc1cc(OC)c(CN2CCN(c3ccc(F)cc3)CC2)cc1Br,104,-8,56,115,-0.8,i,0.86
CCN1/C(=C\c2ccc3cc(C)ccc3[n+]2CC)Sc2cc(C)c(C)cc21,110,-23,-413,41,/,/,/
COc1ccc(S(=O)(=O)N2C(=O)/C(=C3\SC(N)=NC3=O)c3ccccc32)cc1,98,/,/,/,/,i,1.1
N=c1n(CCN2CCOCC2)c2ccccc2n1CC(O)COc1ccccc1 (stereo not drawn),97,2,/,/,-0.9,i,0.86
O=C(Cn1nnc(-c2ccccc2F)n1)OCC(=O)c1ccccc1,101,2,/,/,/,i,1.1
Cc1ccc(/C=N/NC(=O)CSc2nc3ccccc3n2Cc2ccc(Cl)cc2)o1,95,-3,-38,104,1.0,i,1
CSc1ccccc1NC(=O)c1cc(-c2cccnc2)nc2ccc(Br)cc12,96,-5,/,/,/,i,0.76

Record cards, as listed above. Values in the order: RGS16-Gao	PKD1 kinase inh	INS promoter inh	INS promoter inh cell count	GALR2 ag	HSV augment	HSV augment primary fold
COCCSc1nnc(NC(=O)c2ccc(NC(C)=O)cc2)s1 as listed: 102	-2	/	/	/	i	1
N=c1n(CCN2CCOCC2)c2ccccc2n1CC(O)COc1ccccc1 (stereo not drawn) as listed: 97	2	/	/	-0.9	i	0.86

The listing picks up, starting 2 compounds before the break.
canonical_smiles,RGS16-Gao,PKD1 kinase inh,INS promoter inh,INS promoter inh cell count,GALR2 ag,HSV augment,HSV augment primary fold
Cc1ccc(/C=N/NC(=O)CSc2nc3ccccc3n2Cc2ccc(Cl)cc2)o1,95,-3,-38,104,1.0,i,1
CSc1ccccc1NC(=O)c1cc(-c2cccnc2)nc2ccc(Br)cc12,96,-5,/,/,/,i,0.76
CCCNC(=O)c1ccc2c(=O)c(O)c(-c3ccc(OC)cc3)[nH]c2c1,106,/,/,/,/,i,0.88
CC(=O)Nc1ccc(N2C(=O)CCC2=O)cc1C,103,-3,43,118,-0.3,i,0.88
Cc1cc2cc(CNC(=O)Nc3ccccc3)ccc2[nH]1,110,-2,0,168,/,i,0.78
CCOC(=O)C1=C(C)OC(N)=C(C#N)C1c1ccc(C)o1 (stereo not drawn),94,-8,-52,57,-0.2,i,0.82
Cc1cc2ccccc2n1CCNC(=O)C1CCCC1,94,8,-18,121,-0.4,/,/
COc1ccc(OCC(=O)Nc2ccc(NC(=O)c3ccco3)cc2)cc1,100,-7,39,84,-1.3,i,0.85
O=C(c1cccc(F)c1)N1CCC(N2CCCCCC2)CC1,112,1,-44,64,-2.1,i,0.96
CCCC/C(O)=C1\C(=O)CC(C)(C)CC1=NCCCCCC(=O)O,101,-2,-22,67,/,i,0.97
COc1ccc(CN(C(=O)Cc2c[nH]c3ccccc23)C(C(=O)NC2CCCCC2)c2ccc(C)o2)cc1 (stereo not drawn),96,-5,-50,114,-3.6,i,0.78
CCOc1ccccc1N1CN(CC)CNC1=S,95,1,19,126,-0.7,i,0.97
NC(=O)c1c(N)sc(=S)n1-c1ccccc1,101,-9,14,114,-2.5,i,1.3
C=CC(C)n1c(Br)nc2c1c(=O)[nH]c(=O)n2C (stereo not drawn),99,-4,62,90,-0.6,i,0.88
CCN1C(=O)/C(=C\N2CCCc3ccccc32)SC1=S,91,6,7,107,-1.4,i,1
O=C(Nc1ccc2c(c1)OCO2)C1CCCN(S(=O)(=O)Cc2ccccc2)C1 (stereo not drawn),107,-2,-17,182,1.2,i,1.1
CCOC(=O)/C(=C/c1c(C)n(C)c2ccc([N+](=O)[O-])cc12)C(C)=O,103,-2,-15,148,0.2,i,0.6
Cc1ccc(CCNC(=O)C2CCCN(c3nc4ccccc4o3)C2)cc1 (stereo not drawn),115,-6,/,/,-3.4,i,1.1
COc1ccc(CCN(CC(=O)NC2CCCC2)C(=O)CCC(=O)Nc2cc(C)on2)cc1OC,111,-2,22,111,-2.2,/,/
NS(=O)(=O)c1cccc(NC(=O)Cc2ccc(Cl)c(Cl)c2)c1,150,5,27,112,/,i,0.98
O=C(COc1ccc2ccccc2c1)N1CCCC1,99,-3,-51,175,-0.8,i,0.94
Cc1ccc(/C=N\NC(=O)COc2ccc(C)cc2[N+](=O)[O-])cc1,104,-8,/,/,/,i,0.91
Cc1ccc(C(=O)Oc2cc(-c3ccccc3)no2)cc1,101,9,23,85,-1.0,i,0.9
CCOC(=O)c1c(NC(=O)/C=C/C(=O)O)sc(C)c1-c1ccc(F)cc1,143,2,/,/,/,i,0.89
N#CC1CCN(c2ncccc2[N+](=O)[O-])CC1,175,/,/,/,/,i,1
CCCNc1cc(=S)nc(N)[nH]1,90,/,/,/,/,i,0.95
COC(=O)c1c(NC(=O)Cn2cc([N+](=O)[O-])cn2)sc2c1CCC2,106,0,-32,152,-4.5,i,0.75
O=C(COC(=O)c1ccccn1)Nc1nc(-c2cccc([N+](=O)[O-])c2)cs1,101,/,/,/,/,i,0.99
O=C1C2C3c4ccccc4C(c4ccccc43)C2C(=O)N1/N=C/c1cccc(O)c1 (stereo not drawn),97,-7,-49,61,-1.0,i,1.1
CC(C)Oc1ccc(N2C(=O)c3ccccc3C2=O)cc1,97,0,19,83,-1.1,i,0.92
Cc1ccc(C)c(SCc2noc(C(=O)NC(C)C)c2C(=O)O)c1,113,0,8,95,-2.1,i,0.79
N#Cc1c(-c2ccccc2)[nH]c(=S)[nH]c1=O,111,-8,62,113,-2.6,i,0.62
O=S(=O)(N/N=C1/CCCc2ccccc21)c1ccc(Br)cc1,108,0,-389,30,-1.1,i,0.78
CCOC(=O)C(=Nc1ccc(Cl)cc1)NO,109,0,/,/,-1.2,i,0.93
Cc1nn(-c2ccccc2)c(C)c1/C=C/C(=O)OCC(=O)N(C)C1CCS(=O)(=O)C1 (stereo not drawn),97,0,/,/,/,i,0.92
O=C(NNC(=S)Nc1ccccc1Cl)c1ccncc1,102,/,/,/,/,i,0.91
COc1ccc(-c2nc(CSCC(=O)N3CCC(C(N)=O)CC3)c(C)o2)cc1OC,109,-7,/,/,-1.9,i,0.88
CCCC(c1nnnn1CS(=O)(=O)c1ccc(C)cc1)N1CCN(c2ccc(F)cc2)CC1 (stereo not drawn),107,2,21,118,-1.8,i,0.8
Cc1ncc(CCl)c2c1OC(C)(C)OC2,98,0,25,84,-1.6,i,0.95
O=C(Nc1nccs1)c1cccc(NC(=O)c2ccco2)c1,100,-2,/,/,-0.5,i,0.88
COc1ccccc1-n1cnnc1SCC(=O)Nc1cc(C(C)(C)C)nn1-c1ccccc1,109,3,-64,106,-1.3,i,1.1
C=C(C)CSCc1nc2ccccc2[nH]1,101,-1,/,/,-1.8,i,0.92
O=C1Nc2ccc(S(=O)(=O)N3CCCC3)c3cccc1c23,102,24,-25,111,-0.9,i,0.96
Cc1cc(C(=O)NNC(=O)c2cccc(C(F)(F)F)c2)no1,101,/,/,/,/,i,1.2
Cc1c2c(nc3nnnn13)CCCC2,101,1,/,/,/,i,1
C/C(=N\OCc1ccccc1)c1c(O)cc(C(C)C)n(-c2ccccc2)c1=O,87,-5,/,/,-0.6,i,0.99
COCCNC(=S)NN=C1CCCCC1,100,5,/,/,/,i,0.92
CCSc1nnc(NC(=O)CSc2nnc(-c3c[nH]c4ccccc34)n2C)s1,100,1,/,/,-3.0,i,0.88
CCOC(=O)Cc1nnc(NC(=O)COc2ccc(OC)cc2)s1,104,-4,20,96,0.9,i,1
O=C(CSc1nncs1)Nc1ccc(S(=O)(=O)N2CCCC2)cc1,105,-3,-36,151,/,i,0.96
Cc1cccc(C(=O)Nc2ccc3c(c2)C(=O)N(CC(C)C)C3=O)c1,101,-3,/,/,/,i,0.85
O=C(NC(NCc1cccnc1)C(Cl)(Cl)Cl)c1cccc2ccccc12 (stereo not drawn),91,-5,-71,67,-1.2,i,0.85
Cc1nc2ccccc2n1CCC(=O)Nc1cccc(F)c1,105,-6,45,149,-2.0,i,0.86
CCOc1ccc(S(=O)(=O)Nc2cccc(C)c2)c2cccnc12,110,-1,/,/,/,i,0.94
O=C(NCc1ccco1)c1cc2c(s1)CCCCC2,95,-3,44,73,-0.2,i,0.88
O=C(CSc1nnc(-c2ccco2)n1Cc1ccco1)Nc1ccccc1,100,-4,-10,196,-1.5,i,0.95
Cn1nc(-c2ccc(Cl)cc2)cc1NC(=O)CCCC(=O)O,103,/,/,/,/,i,1
CCNC(=S)NNC(=O)c1cc(-c2ccc(OCC)cc2)nc2ccccc12,100,-7,/,/,-2.2,i,0.98
COc1ccc(Cn2c(N)c(S(=O)(=O)c3cccs3)c3nc4ccccc4nc32)cc1,109,-8,-14,210,1.8,i,0.73
O=C(O)CCc1ccc(-c2ccccc2)n1Cc1ccco1,86,-1,-27,157,-1.1,i,1.2
O=C(COC(=O)CNC(=O)c1ccccc1)NCCc1ccccc1,110,-2,/,/,/,i,1.1

Screening results (PubChem BioAssay)

Compounds as they come; 1.2% or so of the library scored in one or more.
